Screening data (PubChem BioAssay)
MgrA DNA FP = alters Staphylococcus aureus MgrA binding to DNA. fluorescence polarization. inhibition, %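 (about 10 µg/mL by stock and volumes)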. hit rate 0.13% among 84,000;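 active means above 50% in either of two replicates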;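 further: 0% = protein plus DNA without compound and 100% = DNA alone without protein; higher means less MgrA bound to DNA so lower polarization; one replicate is shown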
Sa helicase inh = blocks Staphylococcus aureus DNA helicase. purified S. aureus helicase, fluorescence unwinding assay; about half of the hits fall short of the stated cut. inhibition, %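 (tested at about 80 µM)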. hit rate 0.05% among 120,000. AID 485395;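 active means both duplicates at 50% or more, or one of them with a favoured structure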;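 further: 0% = mean of negative control wells and 100% = mean of positive control wells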
Active calls of the source: *; / = not tested or not shown.

SMILES,MgrA DNA FP,Sa helicase inh
COc1ccc(COC(=O)C2=C(C)NC(=O)NC2c2cc(Cl)c(O)c(OC)c2)cc1 (stereo unspecified),-1.3,/
COC(=N)c1nccnc1SCc1ccc(F)cc1,/,2
Cc1ccc2[nH]c(=O)c(CN(C)C(=O)C(C)C)cc2c1,-1.2,0
Cc1cc(C)c2c(-n3cccc3)c(C(=O)c3ccc(Cl)cc3)sc2n1,3.7,/
O=C1CCC2(C(=O)O)N1c1ccccc1C(=O)N2C1CC1 (stereo unspecified),/,8
Cc1cc(C(=O)NCC2COc3ccccc3O2)no1 (stereo unspecified),/,23
COc1cc(C(=O)Nc2ccccc2C(=O)OCc2cc(=O)n3oc(C)cc3n2)cc(OC)c1OC,/,10
O=c1ccn(CN2CCCCC2)c(=O)n1CN1CCCCC1,-1.9,10
COc1cc(C2NC(=O)NC(C)=C2C(=O)OC2CCCCCC2)cc(Cl)c1O (stereo unspecified),0.2,/
CN1C(=O)C(/C(N)=N\NC(=O)c2ccccc2)C2CC1(C)Oc1ccccc12 (stereo unspecified),/,-22
O=C(NC1CCCC1)c1n[nH]c(=O)c2ccccc12,/,-34
CCN(CC)CC(N)c1ccccc1 (stereo unspecified),/,-18
O=C(Nc1nccs1)c1cccc2c1-c1ccccc1C2=O,/,-16
COc1ccc(CCN(C)C(=S)NN)cc1OC,0.1,13
Cc1cc(-n2c(C)cc(/C=C/C(=O)O)c2C)no1,/,-10
COc1cccc(OC)c1OC(=O)c1cccc(S(=O)(=O)N(C)OC)c1,/,16
COCCn1cnnc1SCC(=O)Nc1ccc(N2CCCCC2)cc1,/,9
CCN1CCC(N(Cc2ccc(F)cc2)C(=O)Nc2cc(C)ccc2OC)CC1,/,19
COc1ccc(CNC(=O)c2ccc[nH]2)cc1,-1.6,/
O=C(NC1CCCC1)c1cnc2n(c1=O)CCS2,/,19
CC1(C)CC(=NNC(=O)CC#N)CC(C)(C)N1,/,-13
CNC(=O)CN1C(=O)/C(=C/c2ccccc2C)Sc2ccccc21,-0.8,5
CCCCn1c(O)c(N=NC(=O)COc2ccccc2C)c2cc(OC)ccc21,/,-10
Cc1cc(C(F)F)n2ncc(C(=O)NCc3ccccc3)c2n1,0.3,-9
Cc1ccc(CNC(=S)NCCCn2nccc2C)cc1,-0.8,4
O=C(O)CN1C(=O)/C(=C\c2ccc(OCc3ccccc3)cc2)SC1=S,5.8,/
O=S(=O)(c1ccc(Cl)cc1)C(F)(F)C(F)(F)C(F)(F)F,/,-1
CC(C(=O)Nc1ccccc1)N1CCCCC1 (stereo unspecified),/,-3
O=C(COC(=O)C1CCN(C(=O)c2ccc(Cl)cc2)CC1)Nc1cccc2nsnc12,/,-15
COc1ccc(F)cc1C(O)CSCc1ccccc1 (stereo unspecified),/,13
COc1cccc(/C=C2\SC(=S)N(C(Cc3ccccc3)C(=O)O)C2=O)c1 (stereo unspecified),1.6,13
N/C(CS(=O)(=O)c1ccc(F)cc1)=N\O,-0.2,/
CCN(c1ccc2oc3ccccc3c2c1)S(=O)(=O)c1ccccc1C#N,/,-9
Cc1cccc(-c2noc(CCCC(=O)NC3CCCCC3)n2)c1,/,-13
COCCn1c(SCC(=O)OC2CCCCC2)nnc1-c1ccco1,-0.6,1
CCn1c(SCc2nc(-c3cccs3)no2)nnc1-c1ccncc1,1.4,-4
S=C(c1c[nH]c2ccccc12)N1CCCCC1,-0.2,18
NC(=O)NC1(C(F)(F)F)Oc2ccccc2O1,/,-11
NC(=S)N/N=C/c1c(Sc2ccc(Cl)cc2)nc2sccn12,/,-19
N#Cc1ccccc1-n1ccc2ccccc21,-2.4,/
O=C(COC(=O)Cc1cccc(C(F)(F)F)c1)Nc1ccc2[nH]c(=O)[nH]c2c1,/,5
COc1ccc(CCNc2ncnc3[nH]ncc23)cc1OC,/,7
O=C(Oc1ccc2c3c(c(=O)oc2c1)CCCC3)c1ccccc1,/,-11
COc1ccc(C(=O)OCC#N)cc1S(=O)(=O)N1CCN(c2cccc(Cl)c2)CC1,/,4
CC1=C(C#N)C(=O)N(C)C(=O)/C1=C/c1ccc(-c2ccc(Cl)cc2)o1,5.0,7
O=C1C=C(Nc2ccccc2Br)CCC1,0.9,4
Cc1onc(-c2ccccc2Cl)c1C(=O)N(CCC#N)C(C)C,-0.4,/
Cc1ccc(S(=O)(=O)NC(=O)N2CCC(C)CC2)cc1,-0.9,26
CCOC(=O)c1c(-c2cccs2)csc1NC(=O)C1CC=CCC1C(=O)O (stereo unspecified),/,-2
O=C(COC(=O)c1cncc(Br)c1)Nc1ccc(N2CCCCC2)cc1,/,9

Structures shown so far containing fluorine (eight):
SMILES,MgrA DNA FP,Sa helicase inh
COC(=N)c1nccnc1SCc1ccc(F)cc1,/,2
CCN1CCC(N(Cc2ccc(F)cc2)C(=O)Nc2cc(C)ccc2OC)CC1,/,19
Cc1cc(C(F)F)n2ncc(C(=O)NCc3ccccc3)c2n1,0.3,-9
O=S(=O)(c1ccc(Cl)cc1)C(F)(F)C(F)(F)C(F)(F)F,/,-1
COc1ccc(F)cc1C(O)CSCc1ccccc1 (stereo unspecified),/,13
N/C(CS(=O)(=O)c1ccc(F)cc1)=N\O,-0.2,/
NC(=O)NC1(C(F)(F)F)Oc2ccccc2O1,/,-11
O=C(COC(=O)Cc1cccc(C(F)(F)F)c1)Nc1ccc2[nH]c(=O)[nH]c2c1,/,5

Following part
SMILES,MgrA DNA FP,Sa helicase inh
CCN(CC)c1ccc(/C=C2\CCc3ccccc3C2=O)cc1,18,-353
C(=N\n1c(-c2ccco2)csc1=Nc1cccnc1)/c1ccccn1,/,17
CCOc1cc(C#N)c(NC(=O)c2ccc(OC)cc2)cc1OCC,-1.1,-1
COc1ccc(C2NN(CN3CCOCC3)C(=S)N2Cc2ccccc2)cc1 (stereo unspecified),-2.2,7
C=CCn1c(SCC(=O)c2ccc3cc[nH]c3c2)nnc1-c1cccnc1,/,11
C=CCn1c(=S)[nH]c2c(OC)c(OC)c(OC)cc2c1=O,1.8,/
CCn1c(C(Cc2ccccc2)NC(=O)COC)nc2ccccc21 (stereo unspecified),/,-1
Cc1cc2oc(=O)cc(CN(C)C3CCS(=O)(=O)C3)c2cc1C(C)C (stereo unspecified),/,-15
CC1=C(C(=O)Nc2ccc(F)cc2)C(c2ccc(N3CCOCC3)cc2)C2=C(CCCC2=O)N1 (stereo unspecified),-1.5,1
S=C(NCc1cccnc1)SCc1cc(Cl)sc1Cl,-15,/
N#CCC(=O)Nc1ccc(C(=O)OCC(=O)N2CCN(c3ccccc3)CC2)cc1,/,-4
Clc1ccc(CSC2=NCCCN2)cc1,-4.0,/
O=C(NCCCN1CCN(Cc2ccccc2)CC1)c1nnc(Cc2ccc(F)cc2)o1,/,7
C=CCN(CC=C)CC(O)Cn1c(-c2ccc(OC)cc2)cc2ccccc21 (stereo unspecified),0.5,9
O=C(NCc1ccc2c(c1)OCO2)C1CCN(c2nnc(-n3cccc3)s2)CC1,/,-2
CN(c1ccc(O)cc1)c1nc(-c2cccnc2)cs1,1.8,-5
CCc1cc2c(=O)c(-c3nc4ccccc4[nH]3)coc2cc1OC(=O)N1CCOCC1,/,4
O=C(CC12CC3CC(CC(C3)C1)C2)N1CCOCC1,-0.6,/
Cc1cc(NC(=O)c2ccc(F)cc2)c([N+](=O)[O-])cc1C,-0.7,/
Cc1ccc(C)n1-c1c(C)n(C)n(-c2ccccc2)c1=O,/,11
O=S(Cc1ccccc1)c1ccccc1 (stereo unspecified),/,4
Cc1cc(SCC(=O)NC(C)(C#N)C(C)C)nc2ccccc12 (stereo unspecified),/,-6
Cc1ccc(SCC2=NNC(=O)C2)cc1,4.8,5
COc1ccc(CC2c3cc(OC)c(OC)cc3CCN2C(=S)Nc2ccc(Cl)cc2C)cc1OC (stereo unspecified),-2.8,/
CC(NCc1ccccc1O)c1ccccc1 (stereo unspecified),/,-2

(cont.)
SMILES	MgrA DNA FP	Sa helicase inh
CCOC(=O)c1sc(NC=O)c(C(=O)OCC)c1C	-2.3	-2
CSc1nc(NCCOC(=O)c2ccco2)c(C#N)c(-c2ccc(C(C)(C)C)cc2)n1	/	-11
CCOC(=O)c1[nH]c(COC(=O)CCc2ccccc2)c(C(=O)OCC)c1C	/	10
CCNc1nc(NCC)nc(OCCOC(=O)c2ccccc2)n1	-0.2	/
O=S(=O)(N=S(N1CCOCC1)N1CCOCC1)c1ccccc1	/	-11
COc1cccc(NC(=O)CSc2nnc3scc(-c4ccccc4)n23)c1	/	31
O=C(/C=C/c1cccs1)Nc1ccccc1N1CCCCC1	-0.4	-5
CNC(=O)c1cnn2c(C(F)(F)F)cc(C(F)(F)F)nc12	-1.2	/
COC(CN(Cc1nc(N)nc(Nc2ccc(C)cc2)n1)Cc1nc(N)nc(Nc2ccc(C)cc2)n1)OC	/	1
Nc1cc(N)nc(SCC(=O)c2ccccc2)n1	-0.2	6
O/N=C/c1ccccc1Br	/	19
C=CCN=C1SC(CC)C(=O)N1S(=O)(=O)c1ccc(C)cc1 (stereo unspecified)	/	9
FC(F)Oc1ccc(-c2cn3c(n2)sc2ccccc23)cc1	/	3
c1ccc2c(OCCOc3cccc4ccccc34)cccc2c1	1.3	/
NCCc1cnn(-c2ccccc2)c1	4.2	13
CCCN(CCC)Cc1c(C(=O)N/N=C/c2ccoc2)nnn1-c1nonc1N	/	4
Cc1noc(C)c1COC(=O)c1cccc(S(=O)(=O)N2CCCCC2)c1	/	8
CSc1nc2ccc(NC(=O)C3CCCCC3)cc2s1	/	9
COc1ccc(CN(C)C(=O)c2cnc(OC)cc2C(F)(F)F)c(OC)c1	-1.2	/
O=C(NCc1ccco1)c1nc(-c2cccc(F)c2)n2c1CCCCC2	/	-19
CCOC(=O)N1CCC(=NNc2nc3ccccc3[nH]2)CC1	/	0
O=C(COc1nsnc1N1CCOCC1)c1ccccc1	-0.2	11
Cc1ccc(C(=O)/C=C2/CC(c3ccccc3)NCCN2)c(O)c1 (stereo unspecified)	-3.0	0
CCn1cc(C(=O)O)c(=O)c2cc(F)c(NN3C(=O)CSC3c3ccccc3Cl)cc21 (stereo unspecified)	-1.8	2
Cc1[nH][nH]c(=O)c1N=Nc1ccc(S(=O)(=O)N2CCCCC2)cc1	/	22
CN(C)CCC(C)(O)Cc1ccccc1 (stereo unspecified)	-3.0	13
Cc1nc(SCCC(=O)O)c2c3c(sc2n1)CCCC3	/	-7
CCCn1c(O)c(C2=NC(=S)NC2=O)c2ccccc21	-0.4	-13
Cn1c(=O)c2c(ncn2CC(=O)Nc2ccncc2)n(C)c1=O	1.7	6
CCOC(=O)C1CCN(S(=O)(=O)c2ccc(-c3csc(C)n3)s2)CC1	-2.4	/

Record cards (already shown). Values in the order: MgrA DNA FP	Sa helicase inh
`CN(C)CCC(C)(O)Cc1ccccc1` (stereo unspecified) across the screens: -3.0	13
`Cc1nc(SCCC(=O)O)c2c3c(sc2n1)CCCC3` across the screens: /	-7

Other structures follow.
SMILES	MgrA DNA FP	Sa helicase inh
COc1ccc(-n2nc(C(=O)O)c(C)c(C#N)c2=O)cc1	/	-11
Cc1c(C(N)=O)sc(C(N)=O)c1C	-1.5	/
C=CCNC(=O)CN1CCC(n2c(C)nc3cc(C(F)(F)F)ccc32)CC1	-20	16
Cc1ccc(CSc2nnc(-c3cnccn3)s2)cc1	/	-8
COc1cc(S(=O)(=O)N2CCN(Cc3ccc4c(c3)OCO4)CC2)c(OC)cc1C	-2.0	8
Cc1[nH]c(=O)c(C#N)c(C)c1Cl	-0.6	/
COc1ccc2c(CC(=O)OCC(=O)Nc3c(C)n(C)n(-c4ccccc4)c3=O)coc2c1	/	-12
COC(=O)c1cccc(NC(=O)C2(c3ccccc3)CCOCC2)c1	/	17
O=C1C=C(c2ccccc2)OC2(CCCCC2)O1	/	-26
Nc1cccc2nsnc12	3.6	/
CCOc1cc(/C=C2\C(=O)Nc3ccccc32)ccc1O	4.0	-19
Cc1noc(C)c1C(=O)OCc1ccc(-c2ccc(F)cc2F)o1	0.0	/
O=c1oc2ccccc2c(O)c1[N+](=O)[O-]	-2.8	/
Cc1ccccc1Cc1c(C)nc2ncnn2c1C	/	7
CCOC(=O)c1oc2ccccc2c1COC(=O)[C@H](C)NC(=O)c1ccco1	/	-14
N#CCCN1CCn2c1nc1ccccc12	/	-7
CC1CN(C(=O)CCC(=O)O)CC(C)O1 (stereo unspecified)	7.0	7
COc1ccc(-c2csc(NC(=O)CCOc3ccccc3)n2)cc1	/	-4
CNc1ccc(CSc2ccc(C(F)(F)F)cn2)cc1C(F)(F)F	-0.3	/
Nc1nc(C2COc3ccccc3O2)ncc1S(=O)(=O)c1ccc(Cl)cc1 (stereo unspecified)	/	-31
CCOC(=O)CCc1c(C)nn(-c2ccc(N3CCOCC3)nn2)c1C	-1.4	3
O=C(COC(=O)c1cc[n+]([O-])cc1)Nc1ccccc1Cl	-1.9	3
O=C(O)CCSCCc1ccncc1	/	3
COc1ccc(C(CCN)C(C)C)cc1 (stereo unspecified)	1.7	13
CCOC(=O)C1CCN(C(=O)COC(=O)c2ccc(Br)cc2)CC1	/	6
Cc1ccc(S(=O)(=O)N(C)c2ccccc2)cc1	/	5
COc1ccc(N=Cc2ccc(Sc3ccccn3)o2)cc1	-2.3	5
CN(C)c1ccc(CNc2nc3ccccc3n2CCN2CCCCC2)cc1	-2.4	2
NC(=O)c1ccccc1NC(=O)c1cccs1	-0.5	/
COc1cccc(/C=N/n2cnnc2)c1OC	/	15

These rows are one share of the data; count on the stated rates, not on these rows.
